# RecA splice inh – Mtb RecA intein splicing inhibition | P9WHJ3 | cell-free RecA intein splicing, fluorescence | inhibition, %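 (about 9 µM by stock and volumes)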 | hit rate 0.75% among 290,000; in the data active = inhibition above about 30%; inconclusive = no clear call, values can overlap the other calls;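 also: 0% = vehicle wells and 100% = reference inhibitor control wells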
# Target sequence (P9WHJ3 whole entry, looked up, canonical isoform): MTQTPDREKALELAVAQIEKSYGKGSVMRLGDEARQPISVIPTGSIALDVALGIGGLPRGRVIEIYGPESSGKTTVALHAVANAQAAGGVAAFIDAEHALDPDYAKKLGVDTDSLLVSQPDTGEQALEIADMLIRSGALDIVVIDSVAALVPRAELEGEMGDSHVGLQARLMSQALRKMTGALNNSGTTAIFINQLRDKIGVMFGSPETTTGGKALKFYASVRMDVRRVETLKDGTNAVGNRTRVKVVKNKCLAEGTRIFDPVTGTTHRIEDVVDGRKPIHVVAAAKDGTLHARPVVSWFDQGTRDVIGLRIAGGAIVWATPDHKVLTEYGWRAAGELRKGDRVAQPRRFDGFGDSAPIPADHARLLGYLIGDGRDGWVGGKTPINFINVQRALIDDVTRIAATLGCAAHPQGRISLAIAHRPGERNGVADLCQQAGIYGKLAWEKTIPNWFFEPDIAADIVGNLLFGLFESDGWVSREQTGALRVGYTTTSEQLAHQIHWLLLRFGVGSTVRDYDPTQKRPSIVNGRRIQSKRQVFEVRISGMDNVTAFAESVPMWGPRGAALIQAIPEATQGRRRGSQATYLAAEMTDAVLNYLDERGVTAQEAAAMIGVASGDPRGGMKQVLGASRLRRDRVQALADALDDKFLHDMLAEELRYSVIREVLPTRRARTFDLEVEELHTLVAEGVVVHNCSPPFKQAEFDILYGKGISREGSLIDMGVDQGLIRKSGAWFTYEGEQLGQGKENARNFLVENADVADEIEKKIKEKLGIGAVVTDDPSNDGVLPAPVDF
# Mtb betalactam – beta-lactam sensitization of Mtb H37Rv | M. tuberculosis H37Rv growth with meropenem, percent inhibition; hits of this screen are not shown here | hit rate 0.27% among 330,000 | AID 434955 | inhibition, % at 25 µM;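 active = about 74% or more and at least 40 points above the plate without the antibiotic, then above 30% in a dose series; inconclusive = first-round hits that could not be retested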;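 also: growth measured after seven days incubation then overnight dye step; 0% = bacteria only wells and 100% = bacteria with antibiotic; twin plates without the antibiotic show which effects depend on it; some results filed as inactive read as strong as hits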
# YopH PTP inh – inhibitors of Yersinia enterocolitica YopH tyrosine phosphatase | fluorescence Ex485/Em525 | inhibition, %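 (about 10 µM by stock and volumes)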 | hit rate 0.16% among 140,000;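 active = inhibition of 50% or more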;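 also: controls were vehicle for no effect and minimum signal wells for full effect; inactives centre near -20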
# Mtb H37Rv – M. tuberculosis H37Rv growth inhibitors, H37Rv strain (AID 1626); inhibition, % at 10 µM, or IC50 in µM where a hit was titrated; M. tuberculosis H37Rv growth inhibition; higher % means a stronger effect; hit rate 0.95% among 220,000;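 active = confirmed in a dose series; inconclusive = inhibition above 80% but not taken into the dose series; inactive = below 80% or under 30% at every dose of the series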;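 also: bacteria incubated seven days before Alamar blue readout; 0% = bacteria only wells and 100% = bacteria with antibiotic wells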
# Arbovirus anti – blocks arbovirus infection; arbovirus infection cell-based antiviral screen; inhibition, % at 10 µM; hit rate 0.37% among 200,000; AID 1251;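 active = inhibition from about 30%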;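 also: bluetongue infection of BSR cells; cell survival read as ATP light after 72 h; 0% = infected wells without compound and 100% = uninfected wells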
# Arbovirus anti repeat – also measured in Arbovirus anti; calls as there; inhibition, %; measured here: 10K subset replicate screen; many hits read low in the repeat;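 first of two repeat runs on a subset; 0% = infected and 100% = uninfected wells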
# Active calls of the source: *; ? = inconclusive; . = not tested or not shown; & = joins results of further samples. Not all compounds are listed. The share of hits here may be higher or lower than overall.
SMILES,RecA splice inh,Mtb betalactam,YopH PTP inh,Mtb H37Rv,Arbovirus anti,others
CC(=O)Nc1ccc(S(=O)(=O)N2CCC(C(=O)c3ccc(Cl)cc3)CC2)cc1,1.0,-1,.,.,.,
COC(=O)[C@]1(CC(C)C)N[C@H](c2ccc(-c3ccc(F)cc3)cc2)[C@@H]2C(=O)N(C)C(=O)[C@@H]21,17,0,.,.,.,
CCOc1cc(CNCCc2c[nH]c3ccccc23)cc(Cl)c1OC,1.9,5,.,0%,-36,
Clc1ccc2nc(N3CCCCC3)[nH]c2c1,-1.7,-6,1,14%,-2,
COc1ccc(CCN(C)C(=O)C2CCCN(Cc3ccc(OC)c(OC)c3)C2)cc1OC (stereo not drawn),-0.3&-3.2,-8&0,2,-7%&-7%,4&-2,
O=C(Nc1cccc(C(=O)N2CCOCC2)c1)c1cncc(Br)c1,.,4,-11,5%,7,
Cc1cccc(OCC(=O)Nc2nccs2)c1C,0.9,?,.,.,.,
CCOCCOC(NC(=O)c1ccccc1)(C(F)(F)F)C(F)(F)F,-3.2,1,-25,7%,0,
CC(C)(C)c1ccc(-c2n[nH]c(=S)n2CC2CCCO2)cc1 (stereo not drawn),4.3,0,.,-2%,4,
O=S(=O)(c1ccc(OCC(O)CN2CCCC2)cc1)N1CCOCC1 (stereo not drawn),1.2,4,1,-9%,0,
O=C(OC(C(=O)NCc1ccc2c(c1)OCO2)c1ccc(Cl)cc1)c1ccco1 (stereo not drawn),.,2,-15,7%,-2,
O=C(OCc1ccco1)c1ccc(S(=O)(=O)N2CCCCC2)cc1,7.1,68,-12,1%,4,
Cc1nc(C(N)=O)nc2ccccc12,-0.4,-6,.,-6%,.,
CCN=C1SC(CC(N)=O)C(=O)N1CC (stereo not drawn),0.5,2,.,-2%,4,
CC1(C)Cc2c(c(N3CCCCC3)[nH]c(=S)c2C#N)CS1,1.8,.,-17,2%,4,
O=S(=O)(c1ccccc1)N1CCN(C2CCN(Cc3ccccc3)CC2)CC1,-0.9,-7,-22,-6%,-13,Arbovirus anti repeat=-5
CNC(=O)NC(=O)C(OC(=O)CCNS(=O)(=O)c1ccccc1)c1ccccc1 (stereo not drawn),0.5,-3,.,.,.,
O=C(CCC(=O)OCc1cccc(C(=O)Oc2ccccc2)c1)Nc1cccc2ccccc12,0.8,96,-47,4%,10,
CN(C)c1ccc(N=Nc2ccccc2C(=O)OCC(=O)NC2CCCC2)cc1,3.3,95,-19,46%,5,
Cc1c(C(=O)N2CCCCC2)c(S(=O)(=O)NCc2ccc(N(C)C)cc2)c(C)n1C,-2.9,5,.,.,.,
Cc1ccc(C)n1-n1c(C)nc2sc(-c3ccccc3)cc2c1=O,6.4,92,0,8%,10,Arbovirus anti repeat=12
C=CCOc1ccccc1CNn1nnnc1N,5.4,-4,-28,0%,8,
CN(C)c1ccc(-c2n[nH]c(=S)n2-c2ccccc2)cc1,-1.4,14,.,4%,-1,
CCOC(=O)c1sc(NC(=O)c2ccc(C)s2)cc1C,-5.8,31,-125,32%,-22,
COc1ccc(CC(NC(C)=O)C(=O)NC2CCN(C(=O)Nc3ccccc3C)CC2)cc1OC (stereo not drawn),-0.2,3,.,.,.,
Cc1ccc(OCCn2c(=O)oc3ccc(C)cc32)cc1,-0.6,10,.,18%,-1,
CCCCCN(C(=O)NC(=O)Nc1ccccc1C)S(=O)(=O)c1ccccc1,1.8,-1,-32,5%,11,
O=C(CC1C(=O)NC2CCCCC2N1C(=O)c1ccc(F)cc1)Nc1ccccc1 (stereo not drawn),-1.7,-1,-3,-5%,-2,
NC(=O)CSc1n[nH]c(-c2ccco2)n1,1.1,-1,.,.,.,
Nc1nc(NCCCN2CCOCC2)nc(Nc2ccc(F)cc2)c1[N+](=O)[O-],-0.3,-5,-10,3%,22,

# Part of the list above in order of heavy-atom count, high to low.
SMILES,RecA splice inh,Mtb betalactam,YopH PTP inh,Mtb H37Rv,Arbovirus anti,others
CCCCCN(C(=O)NC(=O)Nc1ccccc1C)S(=O)(=O)c1ccccc1,1.8,-1,-32,5%,11,
CN(C)c1ccc(-c2n[nH]c(=S)n2-c2ccccc2)cc1,-1.4,14,.,4%,-1,
NC(=O)CSc1n[nH]c(-c2ccco2)n1,1.1,-1,.,.,.,

# (cont.)
SMILES,RecA splice inh,Mtb betalactam,YopH PTP inh,Mtb H37Rv,Arbovirus anti,others
O=[N+]([O-])c1ccc(S(=O)(=O)NCC2CCCO2)cc1 (stereo not drawn),5.1,4,-19,8%,2,
CC/C(C)=N/Nc1nc2c(c(=O)[nH]c(=O)n2C)n1Cc1ccccc1,-3.7,7,.,.,.,
COc1ccc(C(=O)[C@H]2[C@H]3C(=O)N(c4ccc(OC(C)=O)cc4)C(=O)[C@H]3C3C=CC=NN32)cc1 (stereo partly drawn),6.7,3,.,-2%,.,
CCOC(=O)c1cc(CC)sc1NC(=O)c1cc([N+](=O)[O-])ccc1N1CCOCC1,-2.2,-8,-53,8%,-1,
Cc1cc(S(=O)(=O)NCc2ccccc2)ccc1OCC(=O)NCc1cccnc1,-0.2,-7,.,.,.,
C/C(Cl)=C/Cc1c(C)[nH]c2ccc(C)cc2c1=O,1.6,2,-20,-7%,2,
Oc1c(N=NC(=S)Nc2ccccc2F)c2ccccc2n1Cc1ccccc1Cl,0.9,0,.,14%,-6,
O=C(O)c1cccc(NC(=S)N/N=C/c2ccccc2OCc2cccc(Br)c2)c1,24,.,.,11%,12,
COc1ccc(CCN(Cc2cc3cccc(C)c3[nH]c2=O)C(=O)NC2CCCCC2)cc1OC,7.7,?,-4,0%,-7,
O=C(O)CSc1ccccn1,-2.5,4,-38,-6%,5,

# Of the compounds above, 3 contain a thiophene ring, fused or not:
SMILES,RecA splice inh,Mtb betalactam,YopH PTP inh,Mtb H37Rv,Arbovirus anti,others
Cc1ccc(C)n1-n1c(C)nc2sc(-c3ccccc3)cc2c1=O,6.4,92,0,8%,10,Arbovirus anti repeat=12
CCOC(=O)c1sc(NC(=O)c2ccc(C)s2)cc1C,-5.8,31,-125,32%,-22,
CCOC(=O)c1cc(CC)sc1NC(=O)c1cc([N+](=O)[O-])ccc1N1CCOCC1,-2.2,-8,-53,8%,-1,

# The list goes on.
SMILES,RecA splice inh,Mtb betalactam,YopH PTP inh,Mtb H37Rv,Arbovirus anti,others
CCOC(=O)c1ccccc1NC(=O)CN1C(=O)CCS(=O)(=O)c2ccccc21,0.0,.,-5,3%,4,
OCC1CCN(Cc2cn(Cc3ccccc3)nc2-c2cc3ccccc3o2)CC1,-2.0,4,.,6%,-16,
Cc1nn(C)c(C(=O)N/N=C/c2ccc(Br)cc2)c1Cl,7.9,11,-26,7%,-6,
COC(=O)[C@@H](NC(=O)N(C1CCCCC1)C1CCCCC1)C(C)C,4.3,-2,-22,6%,-4,
CCOC(=O)c1nnn2c1nc(N1CCOCC1)c1ccccc12,-1.2,0,.,4%,.,
C/C(CCc1ccc2c(c1)OCO2)=N\N=C1\NC(=O)CC(C(=O)Nc2ccc(Cl)cc2)S1 (stereo not drawn),5.9,-3,-28,-2%,10,
Cc1ccc(C(=O)C[n+]2cc(-c3ccc(C)cc3)n3c2CCCCC3)cc1,1.8,?,-38,.,-12,
CCC1(C)Cc2ccccc2-c2nc(NCCCO)n(C)c(=O)c21 (stereo not drawn),0.8,-7,.,-6%,.,
Nc1nonc1N1CCCCC1,-3.7,7,-4,-7%,-1,
COc1ccc(N2CCN(C(=O)c3cc(=O)c4ccc(C)cc4o3)CC2)cc1,-1.9,6,.,.,.,

# Copied from the entries so far (six entries):
SMILES,RecA splice inh,Mtb betalactam,YopH PTP inh,Mtb H37Rv,Arbovirus anti,others
CCOC(=O)c1ccccc1NC(=O)CN1C(=O)CCS(=O)(=O)c2ccccc21,0.0,.,-5,3%,4,
OCC1CCN(Cc2cn(Cc3ccccc3)nc2-c2cc3ccccc3o2)CC1,-2.0,4,.,6%,-16,
Cc1nn(C)c(C(=O)N/N=C/c2ccc(Br)cc2)c1Cl,7.9,11,-26,7%,-6,
COC(=O)[C@@H](NC(=O)N(C1CCCCC1)C1CCCCC1)C(C)C,4.3,-2,-22,6%,-4,
CCOC(=O)c1nnn2c1nc(N1CCOCC1)c1ccccc12,-1.2,0,.,4%,.,
C/C(CCc1ccc2c(c1)OCO2)=N\N=C1\NC(=O)CC(C(=O)Nc2ccc(Cl)cc2)S1 (stereo not drawn),5.9,-3,-28,-2%,10,

# More records:
SMILES,RecA splice inh,Mtb betalactam,YopH PTP inh,Mtb H37Rv,Arbovirus anti,others
CC1CCN(c2ccc(S(=O)(=O)N3CCC(C)CC3)cc2N)CC1,-1.0,6,.,.,.,
CC(=O)Nc1ccc(NC(=O)CSc2nnc(-c3ccco3)n2Cc2ccco2)cc1,-0.5,80,-12,-2%,7,
NS(=O)(=O)c1ccc(CNC(=O)c2cc(=O)c3ccccc3o2)cc1,0.6,-6,.,.,.,
CC(C)(C)c1nc(SCC(=O)NC2CCCC2)c2ccccc2n1,6.8,-2,.,.,.,
CO[C@@]1(NC(=O)Cc2cccs2)C(=O)N2C(C(=O)O)=C(COC(N)=O)CS[C@@H]21,-2.5,-1,-28,0%,6,
COc1cc(S(=O)(=O)Nc2ccc3cn[nH]c3c2)ccc1Cl,6.3,-7,.,5%,11,
O=C(Nc1cc(Cl)cc(Cl)c1)C1CCC(=O)N1Cc1ccccc1Cl (stereo not drawn),15,4,-32,0%,3,
COc1cc(/C=C(\C#N)C(=O)NCc2cccs2)ccc1O,9.5,-8,-55,-2%,3,
CC(=O)Nc1ccc(NC(=O)c2ccc(C)c(S(=O)(=O)Nc3cccc(C)c3)c2)cc1,3.4,-4,.,-6%,5,
Cc1c(C(C)NC(=O)c2ccc3nc(Cc4ccccc4F)oc3c2)cnn1C (stereo not drawn),-2.2,0,.,.,.,

# Among those listed so far, these contain a nitro group on carbon:
SMILES,RecA splice inh,Mtb betalactam,YopH PTP inh,Mtb H37Rv,Arbovirus anti,others
Nc1nc(NCCCN2CCOCC2)nc(Nc2ccc(F)cc2)c1[N+](=O)[O-],-0.3,-5,-10,3%,22,
O=[N+]([O-])c1ccc(S(=O)(=O)NCC2CCCO2)cc1 (stereo not drawn),5.1,4,-19,8%,2,
CCOC(=O)c1cc(CC)sc1NC(=O)c1cc([N+](=O)[O-])ccc1N1CCOCC1,-2.2,-8,-53,8%,-1,

# (next part)
SMILES,RecA splice inh,Mtb betalactam,YopH PTP inh,Mtb H37Rv,Arbovirus anti,others
Cc1ccc(/C=N/NC(=O)c2c(C)nc3ccc(Br)cn23)cc1,0.0,-7,.,.,.,
Cc1cc(C)c(S(=O)(=O)NCC(c2ccco2)N2CCc3ccccc3C2)c(C)c1 (stereo not drawn),9.8,-6,.,.,.,
O=C(/C=C/c1ccco1)N1CCC(Cc2ccccc2)CC1,11,-4,.,-4%,1,
COc1ccc(C(=O)NCC(=O)N/N=C(\C)c2ccco2)cc1OC,-0.5,-12,.,-9%,.,
O=C(CN1CCN(S(=O)(=O)c2ccc(F)cc2)CC1)NC1CCCC1,2.5,-3,.,.,.,
CCSc1nc2ccccc2c(=O)n1Cc1ccc(F)cc1,3.6,-9,.,-1%,0,
C#CCN1C(=O)S/C(=C\c2cc3c(cc2OC)OCO3)C1=O,-2.4,-17,.,.,.,
Cc1cccc(N2C(=O)CC(SC(=Nc3ccccc3)Nc3ccccc3)C2=O)c1 (stereo not drawn),0.1,-5,-45,8%,-30,
Cc1ccc(C(=O)NCCCn2ccnc2)o1,.,-4,-10,-1%,12,Arbovirus anti repeat=2
CCN(CCO)c1ccc(NC(=S)Nc2cccc(S(=O)(=O)N(C)C)c2)cc1,-9.1,1,.,8%,-5,
CC(=O)NCc1ccc(C(=O)O)cc1,-5.9,-1,.,10%,.,
CS(=O)(=O)Nc1cccc(-c2cn3ccccc3n2)c1,0.6,9,.,-1%,1,
O=C1CSC(=S)N1c1ccc(F)c(Cl)c1,3.9,-7,.,.,.,
